# FGF22 binding – binders of human FGF22 protein, primary screen, FGF22 synaptogenesis inhibitor project, biophysical, thermal shift, single point; Fibroblast growth factor 22 (Homo sapiens), Q9HCT0; calls only at 9.99 µM; 340,000 compounds, 1.5% hits; recombinant FGF22 thermal shift, SYPRO orange fluorescence; percent of sucrose octasulfate shift, DMSO zero;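 active means melting point raised past a set limit in the mean and every replicate; three in four hits are not shown here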
# Target sequence (Q9HCT0 whole entry, looked up): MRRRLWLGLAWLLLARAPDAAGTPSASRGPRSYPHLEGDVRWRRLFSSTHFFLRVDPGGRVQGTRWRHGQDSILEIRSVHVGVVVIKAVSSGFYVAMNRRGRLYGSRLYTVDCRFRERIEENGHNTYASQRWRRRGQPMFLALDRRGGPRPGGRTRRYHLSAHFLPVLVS
# Calls only; i = inactive.
SMILES,FGF22 binding
O=C(C[C@H]1CC[C@H](NS(=O)(=O)c2ccccc2)[C@H](CO)O1)NCc1ccncn1,i
O=C(N[C@@H]1CC[C@H](CCNS(=O)(=O)c2ccccc2Cl)O[C@@H]1CO)c1ccc(F)cc1,i
C[C@@H]1CCCCO[C@@H](CN(C)C(=O)Nc2ccc(F)cc2)[C@H](C)CN([C@@H](C)CO)C(=O)c2cc(NC(=O)NC3CCCCC3)ccc2O1,i
CCCC(=O)Nc1ccc2c(c1)C(=O)N(C)[C@H]1CC[C@@H](CC(=O)NCCc3ccccc3)O[C@H]1CO2,i
O=C(NS(=O)(=O)c1cccs1)[C@H]1O[C@@H](n2ccc(=O)[nH]c2=O)[C@H](O)[C@@H]1O,i
CO[C@H]1CN(C)C(=O)c2ccc(NC(=O)C3CCC3)cc2OC[C@H](C)N(C(=O)NC(C)C)C[C@@H]1C,i
COc1ccccc1C#Cc1cnc2c(c1)C(=O)N([C@H](C)CO)C[C@H](C)[C@H](CN(C)C(C)=O)O2,i
C[C@@H]1CN([C@@H](C)CO)C(=O)c2cc(NC(=O)Nc3ccc(F)cc3)ccc2O[C@@H]1CN(C)C,i
COc1cc(/C=C(/C#N)c2nc(-c3cc4ccccc4oc3=O)cs2)cc([N+](=O)[O-])c1O,i
C[C@@H]1CN([C@@H](C)CO)S(=O)(=O)c2ccc(-c3ccc(F)cc3)cc2O[C@H]1CN(C)S(C)(=O)=O,i
COc1ccc(NC(=O)Nc2ccc3c(c2)CC(=O)N([C@H](C)CO)C[C@H](C)[C@H](CN(C)S(=O)(=O)c2cn(C)cn2)O3)cc1,i
Cc1ccc(S(=O)(=O)N(C)C[C@H]2Oc3ccc(NC(=O)CCN4CCOCC4)cc3C(=O)N([C@@H](C)CO)C[C@H]2C)cc1,i
CO[C@H]1CN(C)C(=O)c2ccc(NS(=O)(=O)c3ccc(C)cc3)cc2OC[C@@H](C)NC[C@@H]1C,i
OC[C@H]1[C@H](c2ccccc2)C2(CN(Cc3ccncc3)C2)N1Cc1ccncc1,i
O=C(C[C@@H]1CC[C@H](NC(=O)NC2CCCCC2)[C@H](CO)O1)NCc1ccc(Cl)cc1,i
COCC(=O)N(C)C[C@H]1Oc2ncc(-c3ccc(C#N)cc3)cc2C(=O)N([C@@H](C)CO)C[C@@H]1C,i
CO[C@@H]1CN(C)C(=O)c2cc(NC(=O)C3CCC3)ccc2OC[C@H](C)NC[C@@H]1C,i
COc1ccc(NC(=O)N(C)C[C@@H]2OCCCC[C@@H](C)Oc3ccc(NC(=O)C4CCCCC4)cc3C(=O)N([C@H](C)CO)C[C@@H]2C)cc1,i
Cc1[nH]c2ccccc2c1CC(=O)Nc1ccc(Nc2ccncc2)cc1,i
C[C@H]1CN([C@@H](C)CO)C(=O)c2cc(C#CCN(C)C)cnc2O[C@@H]1CN(C)C(=O)Nc1ccccc1F,i
O=C(CN1CCOCC1)N1CC(=O)N2[C@H](C1)[C@H](c1ccc(C3=CCCCC3)cc1)[C@@H]2CO,i
C[C@H](CO)N1C[C@H](C)[C@H](CN(C)Cc2ccc(C(=O)O)cc2)Oc2c(cccc2N(C)C)C1=O,i
C/C=C/c1ccc([C@@H]2[C@H](CO)N3CCCCN(C(=O)Nc4cc(F)ccc4F)C[C@@H]23)cc1,i
CCCC#Cc1cnc2c(c1)C(=O)N([C@H](C)CO)C[C@H](C)[C@H](CN(C)Cc1ccccc1F)O2,i
C[C@H](CO)N1C[C@H](C)[C@H](CN(C)C(=O)NC2CCCCC2)Oc2ccc(N(C)C)cc2C1=O,i
COC(=O)C[C@H]1CC[C@@H]2[C@H](COc3ccc(NC(=O)c4ccccc4)cc3C(=O)N2C)O1,i
COc1ccc(S(=O)(=O)N(C)C[C@H]2Oc3ccc(NC(=O)NC4CCCCC4)cc3CC(=O)N([C@@H](C)CO)C[C@@H]2C)cc1,i
CCCNC(=O)Nc1ccc2c(c1)C(=O)N(C)[C@@H]1CC[C@@H](CC(=O)NCc3ccccc3)O[C@@H]1CO2,i
C[C@@H]1CN([C@H](C)CO)C(=O)Cc2cc(NC(=O)NC3CCCCC3)ccc2O[C@@H]1CN(C)Cc1ccc(Cl)c(Cl)c1,i
COc1ccc(-c2ccc([C@H]3[C@H](CO)N4CCCCN(C(=O)NC(C)C)C[C@@H]34)cc2)cc1,i
C[C@@H]1CN([C@H](C)CO)C(=O)CCCn2cc(nn2)CO[C@H]1CN(C)S(=O)(=O)c1ccc(Cl)cc1,i
COc1ccc2c3c(n(C)c2c1)[C@H](CO)N(C(=O)CN1CCOCC1)CC31CN(Cc2ccncc2)C1,i
O=C(C[C@H]1CC[C@H]2[C@@H](COC[C@@H](O)CN2CC2CCCCC2)O1)NCc1ccc(Cl)cc1,i
C[C@@H]1CCCCO[C@H](CN(C)C(=O)CCC(F)(F)F)[C@@H](C)CN([C@@H](C)CO)C(=O)c2cc(NS(=O)(=O)c3cn(C)cn3)ccc2O1,i
C[C@H](CO)N1C[C@H](C)[C@@H](CN(C)Cc2ccc(Cl)c(Cl)c2)Oc2ccc(N(C)C)cc2CC1=O,i
CCCNC(=O)N1[C@@H](C#N)[C@H](c2ccccc2-c2ccccc2F)[C@@H]1CO,i
C[C@H](NC(=O)C[C@@H]1CC[C@H](NC(=O)C2CCC2)[C@@H](CO)O1)c1ccccc1,i
O=C(C[C@@H]1CC[C@@H]2NC[C@H](O)COC[C@H]2O1)N1CCc2ccccc2C1,i
CC(C)NC(=O)Nc1ccc2c(c1)C(=O)N([C@H](C)CO)C[C@@H](C)[C@@H](CN(C)C)OCCCC[C@H](C)O2,i
C[C@@H]1CCCCO[C@@H](CN(C)S(=O)(=O)c2ccccc2)[C@H](C)CN([C@H](C)CO)C(=O)c2cc(NC(=O)NC3CCCCC3)ccc2O1,i
CC1CCN(C(=O)c2ncn3c2C(=O)NC[C@@H]3C)CC1,i
COCC#Cc1cnc2c(c1)C(=O)N([C@@H](C)CO)C[C@@H](C)[C@H](CN(C)C(=O)CCN1CCCCC1)O2,i
C[C@H]1CN([C@@H](C)CO)C(=O)Cc2cc(NC(=O)Nc3ccccc3)ccc2O[C@H]1CN(C)CC1CC1,i
C[C@H]1CN([C@@H](C)CO)C(=O)c2cc(NC(=O)CCCCCC(=O)Nc3ccccc3N)ccc2O[C@@H]1CN(C)C,i
O=C(C[C@H]1C[C@H]2c3cc(NC(=O)C4CCC4)ccc3O[C@H]2[C@H](CO)O1)NCC1CC1,i
O=C([C@@H]1[C@@H](CO)[C@@H]2Cn3c(ccc(C4=CCCCC4)c3=O)[C@H]1N2)N1CCCCC1,i
COCC#Cc1ccc2c(c1)O[C@@H](CN(C)S(=O)(=O)c1cccc(F)c1)[C@H](C)CN([C@H](C)CO)S2(=O)=O,i
CCC(=O)Nc1ccc2c(c1)C(=O)N(C)C[C@@H](OC)[C@@H](C)CN(Cc1ccccn1)[C@@H](C)CO2,i

# Filtered by structure: those above containing an aryl methoxy group
SMILES,FGF22 binding
COc1ccccc1C#Cc1cnc2c(c1)C(=O)N([C@H](C)CO)C[C@H](C)[C@H](CN(C)C(C)=O)O2,i
COc1cc(/C=C(/C#N)c2nc(-c3cc4ccccc4oc3=O)cs2)cc([N+](=O)[O-])c1O,i
COc1ccc(NC(=O)Nc2ccc3c(c2)CC(=O)N([C@H](C)CO)C[C@H](C)[C@H](CN(C)S(=O)(=O)c2cn(C)cn2)O3)cc1,i
COc1ccc(NC(=O)N(C)C[C@@H]2OCCCC[C@@H](C)Oc3ccc(NC(=O)C4CCCCC4)cc3C(=O)N([C@H](C)CO)C[C@@H]2C)cc1,i
COc1ccc(S(=O)(=O)N(C)C[C@H]2Oc3ccc(NC(=O)NC4CCCCC4)cc3CC(=O)N([C@@H](C)CO)C[C@@H]2C)cc1,i
COc1ccc(-c2ccc([C@H]3[C@H](CO)N4CCCCN(C(=O)NC(C)C)C[C@@H]34)cc2)cc1,i
COc1ccc2c3c(n(C)c2c1)[C@H](CO)N(C(=O)CN1CCOCC1)CC31CN(Cc2ccncc2)C1,i

# (more compounds)
SMILES,FGF22 binding
COc1ccc2c3c(n(C)c2c1)[C@@H](CO)N(C(=O)Nc1ccc(F)cc1)CC31CN(C(=O)NC2CCCC2)C1,i
O=C(C[C@@H]1C[C@@H]2c3cc(NC(=O)Nc4ccccc4)ccc3O[C@@H]2[C@H](CO)O1)NCC1CC1,i
CO[C@H]1CC[C@@H]2CCN(C)C(=O)C[C@H](c3ccccc3)CN(C)C(=O)c3cc(C#N)ccc3OC[C@H]1O2,i
CNC(=O)C[C@@H]1CC[C@@H]2[C@H](COC[C@@H](O)CN2Cc2ccc(C(F)(F)F)cc2)O1,i
C[C@@H]1CN([C@H](C)CO)C(=O)c2cc(-c3ccc(C#N)cc3)cnc2O[C@H]1CN(C)C(=O)c1cccnc1,i
C[C@@H]1CN([C@H](C)CO)C(=O)c2cc(NS(=O)(=O)c3cn(C)cn3)ccc2O[C@@H](C)CCCCO[C@@H]1CN(C)C(=O)c1ccncc1,i
C[C@@H]1CN([C@@H](C)CO)C(=O)c2cccc(NC(=O)Nc3cccc4ccccc34)c2O[C@H]1CN(C)C(=O)Nc1ccc(F)cc1,i
CO[C@H]1CN(C)C(=O)c2cc(NC(=O)c3cc(C)on3)ccc2OC[C@H](C)NC[C@H]1C,i
O=C(C[C@@H]1C[C@H]2c3cc(NC(=O)NC4CCCC4)ccc3O[C@H]2[C@H](CO)O1)NCc1ccc2c(c1)OCO2,i
COc1ccc(S(=O)(=O)N[C@@H]2C=C[C@@H](CC(=O)N3CCN(c4ccccc4)CC3)O[C@H]2CO)cc1,i
C[C@@H]1CN([C@H](C)CO)C(=O)CCCn2cc(nn2)CO[C@H]1CN(C)Cc1cccc2c1OCCCO2,i
Cc1ccc(S(=O)(=O)N2CC[C@@H]3[C@H](CO)Nc4ccc(C#Cc5ccc(F)cc5)cc4[C@@H]32)cc1,i

# Retrieved by structure from the entries so far, 2 records:
SMILES,FGF22 binding
C[C@H](CO)N1C[C@H](C)[C@H](CN(C)C(=O)NC2CCCCC2)Oc2ccc(N(C)C)cc2C1=O,i
O=C(C[C@@H]1CC[C@H](NC(=O)NC2CCCCC2)[C@H](CO)O1)NCc1ccc(Cl)cc1,i

# Next entries:
SMILES,FGF22 binding
O=C(NCC[C@H]1CC[C@H](NC(=O)C2CCC2)[C@@H](CO)O1)Nc1ccc(Cl)cc1,i
CCC(=O)N(C)C[C@H]1Oc2ncc(C#C[C@@H](C)O)cc2C(=O)N([C@@H](C)CO)C[C@@H]1C,i
COc1ccccc1NC(=O)N[C@@H]1C=C[C@@H](CC(=O)NCc2ccc(Cl)c(Cl)c2)O[C@H]1CO,i
O=C(Nc1ccc2c(c1)[C@H]1C[C@@H](CC(=O)N3CCCCC3)O[C@@H](CO)[C@H]1O2)NC1CCCC1,i
CC(C)NC(=O)Nc1ccc2c(c1)C(=O)N([C@@H](C)CO)C[C@@H](C)[C@H](CN(C)S(=O)(=O)c1cccs1)OCCCC[C@H](C)O2,i
CN(c1cccnc1)c1ccc(NC(=O)Cc2c[nH]c3ccccc23)cc1-c1ccc(F)c(F)c1,i
O=C(C[C@@H]1CC[C@H](NC(=O)Nc2cccc(F)c2)[C@H](CO)O1)NCC1CC1,i
O=C(C1CCC1)N1C[C@@H]2[C@H](c3ccccc31)[C@H](CO)N2Cc1ccccc1,i
C[C@@H]1CN([C@H](C)CO)S(=O)(=O)c2ccc(-c3ccc(F)cc3)cc2O[C@H]1CN(C)C(=O)C1CCOCC1,i
COCC(=O)N1[C@@H]2c3ccc(-c4cccnc4)c(=O)n3C[C@@H]2[C@@H](CO)[C@@H]1C(=O)Nc1ccccc1,i
COc1ccc(S(=O)(=O)N(C)C[C@@H]2Oc3ccc(NC(=O)CCC(F)(F)F)cc3CC(=O)N([C@@H](C)CO)C[C@H]2C)cc1,i
O=C1NC(c2ccc(Br)cc2)c2c(-c3ccccc3)n[nH]c21 (stereo not drawn),i
CC(C)NC(=O)Nc1ccc2c(c1)C(=O)N([C@@H](C)CO)C[C@@H](C)[C@H](CN(C)C(=O)Nc1ccc(C(F)(F)F)cc1)O2,i
C[C@@H]1CN([C@@H](C)CO)C(=O)c2c(c3ccccc3n2C)-c2ccccc2CO[C@@H]1CN(C)S(=O)(=O)c1ccc(Cl)cc1,i
O=C(C[C@@H]1C=C[C@H](NC(=O)Nc2ccccc2F)[C@@H](CO)O1)NCc1ccc(Cl)cc1,i
COc1cccc(NC(=O)N[C@H]2CC[C@H](CC(=O)N3CCOCC3)O[C@@H]2CO)c1,i
O=C(C[C@@H]1CC[C@@H](NC(=O)CN2CCOCC2)[C@H](CO)O1)NC1CCCCC1,i
COc1ccc2c3c(n(C)c2c1)[C@H](CO)N(S(=O)(=O)c1ccc(C)cc1)CC31CCN(C(=O)c2ccccn2)CC1,i
CN(C)CC(=O)N1[C@@H](C#N)[C@@H](c2ccc(C#CC3CCCC3)cc2)[C@@H]1CO,i
C[C@H](CO)N1C[C@H](C)[C@H](CN(C)Cc2ccc(-c3ccccc3)cc2)Oc2ccc(NS(C)(=O)=O)cc2C1=O,i
CCCNC(=O)C[C@H]1C[C@@H]2c3cc(NC(=O)Nc4ccccc4F)ccc3O[C@@H]2[C@@H](CO)O1,i
Cc1noc(C)c1S(=O)(=O)Nc1ccc2c(c1)C(=O)N([C@@H](C)CO)C[C@H](C)[C@H](CN(C)S(=O)(=O)c1ccc(Cl)cc1)O2,i
C[C@@H]1CN([C@@H](C)CO)C(=O)Cc2cc(NC(=O)Cc3ccccc3)ccc2O[C@H]1CN(C)Cc1ccccc1,i
CC(C)NC(=O)Nc1cccc2c1O[C@H](CN(C)C)[C@H](C)CN([C@@H](C)CO)C2=O,i
CCS(=O)(=O)Nc1ccc2c(c1)C(=O)N(C)C[C@@H](OC)[C@@H](C)CN(C)[C@@H](C)CO2,i
CNC(=O)C[C@@H]1CC[C@H]2[C@@H](COc3ccc(NC(=O)c4ccc(F)c(F)c4)cc3C(=O)N2C)O1,i
C[C@H]1CN([C@@H](C)CO)C(=O)c2cc(C3=CCCCC3)cnc2O[C@@H]1CN(C)Cc1ccccc1F,i
CC(=O)N(C)C[C@@H]1Oc2ncc(-c3ccc(C#N)cc3)cc2C(=O)N([C@@H](C)CO)C[C@@H]1C,i

# The list is partial; the hit share may differ from the screen's.
